VACV Venus inh = qHTS for Stage-Specific Inhibitors of Vaccinia Orthopoxvirus: Venus Reporter Primary qHTS; Vaccinia virus Venus reporter expression, fluorescence; Potency, µM (doses to about 36.5 µM), inactives show at the highest dose activity change, negative = inhibition, usual class: inhibitors; 0.46% of 330,000 active; AID 720580, 2013; active means well fitted inhibition curve with a large enough effect; inconclusive means small, poorly fitted or top-dose-only effect; inactive means no such curve, though single readings can be large or run the other way; tested in A549 cells; also: nearly all actives have a fitted effect of over 30% in size; inactives centre near -10
Vaccinia mCherry = qHTS for Stage-Specific Inhibitors of Vaccinia Orthopoxvirus: mCherry Reporter Primary qHTS; Vaccinia virus mCherry reporter infection, fluorescence; about a quarter of the inactives have no number; Potency, µM (top dose mostly 36.5 µM), inactives show at the highest dose activity change, negative = inhibition, most hits filed as inhibitors; 0.63% of 310,000 active; AID 720579, 2013; active = well fitted inhibition curve with a large enough effect; inconclusive = small, poorly fitted or top-dose-only effect; inactive = no such curve, though single readings can be large or run the other way; tested in A549 cells; also: nearly all actives have a fitted effect of over 35% in size; inactives centre near -10
* = called active by the depositor; i = inactive; ? = inconclusive; / = no result given. % is scaled to controls: 0 for no effect and ±100 for the full control effect; potency is read from the fitted curve at half-maximal effect. Not a hit list; overall some 0.88% were active at least once.

Below each SMILES – VACV Venus inh, Vaccinia mCherry
> COc1ccc(NC(=O)C2CCCN2C(=O)NCc2ccccc2)cc1OC (stereo not drawn)
 : -2%, -1%
> CCn1c(N2CCC(Cc3ccccc3)CC2)nc2c1c(=O)[nH]c(=O)n2C
 : -26%, ?
> Cc1ccc(C)c(NC(=O)CN(C)C(=O)c2ccc(-n3cncn3)c([N+](=O)[O-])c2)c1
 : -13%, i
> Cc1ccc(CNC(=O)[C@@H]2CCC(=O)N2Cc2ccco2)cc1
 : -6%, -16%
> COc1cc(C(=O)NCCOc2ccccc2)c(Br)c(OC)c1OC
 : -19%, -1%
> CCOc1ccc2c(c1)NC(c1ccc(OCC)c(OCC)c1)=NC(c1ccc(F)cc1)=N2
 : -10%, -9%
> O=C(NCCN1CCC(n2c(=O)[nH]c3ccccc32)CC1)c1ccccc1Cl
 : -6%, -15%
> COc1ccc(C(=O)NCC(c2ccco2)N2CCOCC2)cc1 (stereo not drawn)
 : 0%, i
> CN(Cc1cc(-c2ccccc2)on1)C(=O)c1cc(COc2c(F)cccc2F)on1
 : -10%, ?
> Cc1n[nH]c(C)c1CCc1nc2c3ccccc3nc(SCC(=O)Nc3ccccc3F)n2n1
 : ?, ?
> COc1ccc(-c2nc(-c3ccccn3)nc(N3CCN(C)CC3)c2C#N)cc1
 : -22%, -20%
> O=C(Nc1ccc(N2CCN(C(=O)C3CC3)CC2)cc1)c1cccs1
 : -3%, -12%
> CC(C)(C)c1nc2ccc([N+](=O)[O-])cc2[nH]1
 : -11%, -23%
> O=C(NC1CC1)c1cccc2c1C(=O)c1ccc(N3CCC(N4CCCCC4)CC3)cc1S2(=O)=O
 : -5%, -7%
> CC1C(=O)Nc2ccc(S(=O)(=O)N3CCc4ccccc4C3)cc2NC1=O (stereo not drawn)
 : -30%, ?
> CCOc1ccc(Cl)cc1S(=O)(=O)n1cnc2ccccc21
 : ?, ?
> COc1ccc(Cc2nnc(NCCO)[nH]c2=O)cc1OC
 : -6%, -4%
> CCOc1ccccc1NC(=O)c1ccccc1NS(C)(=O)=O
 : -15%, i
> CC(=O)Nc1ccc(S(=O)(=O)CCC(=O)O)cc1
 : 17%, -10%
> COc1ccc(N2CC(NC(=O)CCc3ccccc3)CC2=O)cc1OC (stereo not drawn)
 : 4%, 3%
> CN(CCOc1ccc(Cl)cc1)C(=O)CN1C(=O)NC2(CCCC2)C1=O
 : -23%, -27%
> CCOc1ccccc1OCCCNCc1ccco1
 : 2%, i
> COc1ccc(N2C(=O)CCC(C(=O)N(C)CCc3ccccn3)C2c2ccc(OC)c(OC)c2)cc1 (stereo not drawn)
 : -11%, -21%
> O=C(c1ccc(C(F)(F)F)cc1)N1CCCCC1
 : 0%, -3%
> COC(=O)[C@]12CCCCC=C1N(Cc1cccc3ccccc13)C(=O)[C@H](CC(=O)NCCCN1CCCC1=O)C2
 : 0%, 9%
> N#Cc1ccc(C2N=C(c3ccccc3)NO2)cc1 (stereo not drawn)
 : -11%, -9%
> CCCCn1c(SCc2nc(N)nc(N3CCCCC3)n2)nc2c1c(=O)n(C)c(=O)n2C
 : -4%, -14%
> O=C(CCc1c[nH]c2ccccc12)NCCOc1ccccc1
 : -11%, ?
> Cc1nc2ccc(Cl)cc2nc(C)/c1=N\O
 : -1%, /
> Cc1ccc(OCC(=O)NCCCNC(=O)c2ccccn2)cc1
 : 3%, -7%

The closing five records of the part before come first, to join the parts.
Below each SMILES – VACV Venus inh, Vaccinia mCherry
> N#Cc1ccc(C2N=C(c3ccccc3)NO2)cc1 (stereo not drawn)
 : -11%, -9%
> CCCCn1c(SCc2nc(N)nc(N3CCCCC3)n2)nc2c1c(=O)n(C)c(=O)n2C
 : -4%, -14%
> O=C(CCc1c[nH]c2ccccc12)NCCOc1ccccc1
 : -11%, ?
> Cc1nc2ccc(Cl)cc2nc(C)/c1=N\O
 : -1%, /
> Cc1ccc(OCC(=O)NCCCNC(=O)c2ccccn2)cc1
 : 3%, -7%
> CC(=O)CCC(=O)c1ccc2ccccc2c1
 : -3%, i
> CC1CCN(C(=O)c2cc(-c3ccco3)on2)CC1
 : 4%, i
> CCN1C(=O)CC(C(C)C)N(C2CCCC2)c2nc(Nc3ccc(C(=O)NC4CCN(C)CC4)cc3OC)ncc21 (stereo not drawn)
 : 10µM*, ?
> C=CCN=C(C)C1=C(O)CCC1=O
 : -10%, /
> CCOC(=O)C1=CC[C@H]2c3c(c4ccccc4n3C)C(=O)C1N2Cc1ccccc1
 : -19%, i
> CCOC(=O)c1c(C)[nH]c(O)c1C=Nc1ccc(Cl)cc1
 : -14%, ?
> CC(C)(C)OC(=O)NCCCCCc1cn(CC(=O)NCCCCCCCCCCC(=O)N2CCN(C(=O)OC(C)(C)C)CC2)nn1
 : ?, ?
> O=C(c1ccc(Cl)s1)N1CCN(c2ncccn2)CC1
 : -13%, -8%
> CCOC(=O)c1cc(-c2ccccc2)n(CCCC(=O)Nc2ccc(C)c(Cl)c2)c1C
 : -7%, i
> CC(C)N(C(=O)NC(=O)Nc1ccccn1)S(C)(=O)=O
 : -15%, i
> COc1ccc(CNC(=O)N[C@@H](Cc2c[nH]c3ccccc23)C(=O)O)cc1
 : -2%, i
> CCCc1c(C(=O)N/N=C/C=C/c2ccccc2)nnn1-c1nonc1N
 : -6%, -14%
> CCCCOc1ccc(CON(C(C)=O)C(C)=O)cc1Cl
 : -3%, -10%
> CCC(C)n1c(=N)c(C(=O)NC2CCCCC2)cc2c(=O)n3ccccc3nc21 (stereo not drawn)
 : -20%, -17%
> COC(=O)[C@@]12CCCCN1[C@H](c1ccc(-c3ccccc3)c(OC)c1)[C@H]1C(=O)N(C)C(=O)[C@H]12
 : -20%, -5%
> OCC1OC(n2cnc3c(=S)nc[nH]c32)CC1O (stereo not drawn)
 : -12%, i
> COc1ccc(CCn2c(O)c(/C=N/N3CCCCC3)c(=O)[nH]c2=O)cc1OC
 : -2%, -14%
> CCc1cc2cc(C)ccc2nc1SCC(=O)N1CC(=O)Nc2ccccc21
 : -15%, -22%
> COc1ccccc1Cn1c(=S)[nH]c2ccccc2c1=O
 : -21%, -2%
> Cc1cc(C)c(OCC(=O)Nc2nc(-c3ccccn3)cs2)c(C)c1
 : ?, ?
> Nc1cc(S(=O)(=O)Nc2ccc(Cl)cc2)ccc1N1CCOCC1
 : -13%, ?
> Cc1cccc2c1-c1sc(C(=O)N(C)c3cccc(C(F)(F)F)c3)cc1CO2
 : -14%, -21%
> c1ccc(Cc2noc(CN3CCC(CN4CCOCC4)CC3)n2)cc1
 : -9%, -16%
> CC(C)CC(NC(=O)c1ccc(Cl)cc1)C(=O)OCc1cc([N+](=O)[O-])cc2c1OCOC2 (stereo not drawn)
 : 0%, -14%
> CC(=O)NC(=S)Nc1ccc2oc(=O)ccc2c1
 : -8%, i
> COc1ccc(-c2cc(C(=O)OCC(=O)c3ccc(C)cc3)c3cccc(Cl)c3n2)cc1
 : -9%, -25%
> Cc1ccc(NC(=O)C2CCC(=O)N2)cc1C (stereo not drawn)
 : -14%, -15%
> COc1cccc(OC)c1-c1nn(-c2ncc(C(F)(F)F)cc2Cl)c(=O)o1
 : 3%, i
> CC(C)C(=O)Nc1ccc(NC(=O)c2ccccn2)cn1
 : -8%, -9%
> C=CCc1ccc(OCCn2cccc2C=O)c(OC)c1
 : 0%, -6%

Next section, overlapping the part above by 2 compounds.
Below each SMILES – VACV Venus inh, Vaccinia mCherry
> CC(C)C(=O)Nc1ccc(NC(=O)c2ccccn2)cn1
 : -8%, -9%
> C=CCc1ccc(OCCn2cccc2C=O)c(OC)c1
 : 0%, -6%
> CC(C)N(N=Nc1ccc([N+](=O)[O-])cc1)C(C)C
 : -5%, i
> Cc1cc(C)cc(C(=O)C[n+]2cccc(Br)c2)c1
 : -14%, i
> COc1ccc(C=C2C(=O)NC(=S)NC2=O)cc1OC
 : -8%, -13%
> COc1ccccc1NC(=S)N1C2CCC1CC(NC(=O)NC13CC4CC(CC(C4)C1)C3)C2 (stereo not drawn)
 : -29%, ?
> S=c1[nH]nc(Cc2c[nH]c3ccccc23)o1
 : -18%, i
> CC(=O)c1c(C)[nH]c(C(=O)Nc2cc(C)cc(C)c2)c1C
 : -20%, -29%
> CC(C)(OOC1(c2ccccc2)NC(=O)c2ccccc21)c1ccccc1 (stereo not drawn)
 : 1%, -16%
> COc1ccc(CN2CCCC(CO)(Cc3ccc(F)cc3F)C2)cc1 (stereo not drawn)
 : -14%, ?
> COc1ccccc1C(=O)Oc1ccc(C(C)(C)C)cc1
 : -2%, -14%
> CC1=CCC2C(=O)N(c3cccc(C(=O)Nc4ccccc4Cl)c3)C(=O)C2C1 (stereo not drawn)
 : -13%, i
> Cc1nc2ccsc2c(=O)n1-c1ccccc1Cl
 : -14%, i
> COc1ccccc1CN(C)C(=O)COC(=O)c1cc(C)oc1C
 : -4%, -10%
> C[C@@H]1CN([C@@H](C)CO)C(=O)CCCn2cc(nn2)CO[C@H]1CN(C)S(=O)(=O)c1ccc2c(c1)OCCCO2
 : 3%, -22%
> Cc1ccc(Cn2c(=O)n(Cc3ccc(C(=O)NC4CCN(Cc5ccccc5)CC4)cc3)c(=O)c3ccccc32)cc1
 : 4%, 12%
> Cc1cc(C)cc(N(CC(=O)NCCSc2ccccn2)S(=O)(=O)c2ccccc2)c1
 : -19%, /
> CCn1nnnc1NC(=O)c1cc(OC)c(OC)c(OC)c1
 : -6%, -13%
> COc1ccc(NC(=S)N2CCN(C)CC2)cc1
 : -4%, -5%
> Cc1ccc(-n2ncc(C#N)c2/N=C/N2CCN(C)CC2)cc1
 : -9%, -16%
> COc1ccc(CCN(C(=O)Cn2nnc3ccccc32)C(C(=O)NCC2CCCO2)c2ccncc2)cc1OC (stereo not drawn)
 : -5%, -5%
> CCC(=O)N1CCc2cc(S(=O)(=O)NCCC(=O)NC3CCCc4ccccc43)ccc21 (stereo not drawn)
 : -20%, -5%
> CCCCCc1ccc(-c2ccc(C(=O)Oc3ccc(C(=O)OC)cc3)cc2)nc1
 : 19%, 13%
> Cc1ccc(C)c(S(=O)(=O)Nc2ccc(O)cc2)c1
 : -12%, -23%
> COc1cc(OC)cc(C(=O)Nc2cccnc2)c1
 : -10%, -20%
> NC(=O)C1CC(=O)N(c2ccc(OCc3ccc(Cl)cc3Cl)cc2)C1 (stereo not drawn)
 : -18%, i
> O=C(NCCCN1CCCC1=O)C(=O)NCC1OCCN1S(=O)(=O)c1ccc(Br)cc1 (stereo not drawn)
 : -8%, i
> CC(C)c1nnc(NC(=O)CCC(=O)N2CCN(c3cccc(Cl)c3)CC2)s1
 : -21%, -25%
> CN(C(=O)COC(=O)c1ccc(S(=O)(=O)N2CCOCC2)cc1)C1CCCCC1
 : 2%, -4%
> CSc1cccc(NC(=O)/C=C/c2cccc(Cl)c2)c1
 : -20%, -12%
> CNS(=O)(=O)c1cccc(C(=O)OCCCOC(=O)c2cccc(S(=O)(=O)NC)c2)c1
 : -22%, -24%
> CN(C(=O)c1ccc2c(c1)OCCO2)c1c(N)n(Cc2ccccc2)c(=O)[nH]c1=O
 : -8%, i
> COc1ccc2[nH]cc(CCNC(=O)Nc3c(C)cccc3C)c2c1
 : -13%, -19%
> CC(=O)N(C)c1ccc(NC(=O)N2CCOCC2)cc1
 : -6%, -14%
> O=C(NC1CCCC1)C(C1CC1)n1c(-c2cc3ccccc3[nH]2)nc2ccccc21 (stereo not drawn)
 : -18%, -22%
> CC(C)(CC(=O)c1ccccc1)CC(=O)c1ccccc1
 : -2%, -5%
> CC1=C(c2ccc(C)c(C)c2)S(=O)(=O)N=C1N1CCC(C(=O)NCc2ccc(C)o2)CC1
 : -6%, -16%
> O=C(COC(=O)C1=NN(c2ccccc2)C(=O)CC1)Nc1nc(-c2ccc(F)cc2)cs1
 : -22%, -29%
> Cc1cccc(NC(=O)CNC(=O)c2ccc3nc[nH]c3c2)c1C
 : -17%, -14%
> Cc1cccc(OCC(=O)Nc2ccccc2N2CCCCC2)c1C
 : -23%, i
> Clc1ccc2c(ccc[n+]2CCc2ccccc2)c1
 : 8%, -19%
> COc1cc(C(=S)N2CCOCC2)cc(OC)c1O
 : -11%, -14%
> CCn1c(=O)c(=O)[nH]c2cc(C(=O)NCc3ccc(F)cc3)ccc21
 : 10%, -7%
> CC1CCCCC1NC(=O)CCn1c(=O)oc2ccccc21 (stereo not drawn)
 : -20%, -26%
> COc1ccc(NC(=O)C2CCCN(c3nn4c(=O)cc(C)nc4s3)C2)cc1 (stereo not drawn)
 : -13%, -9%
> CCn1c(=O)c2sccc2n2c(CCCC(=O)Nc3ccc(OC)c(OC)c3)nnc12
 : 4%, 3%
> O=S(=O)(c1ccccc1)c1nc(-c2ccco2)oc1N1CCCCCC1
 : -5%, -3%
> CN1CCc2c(sc(NC(=O)C3CCCN3S(=O)(=O)c3ccc(Cl)s3)c2C(N)=O)C1 (stereo not drawn)
 : -10%, -9%
> O=C(NNC(=O)c1cccc2ccccc12)c1cccc(Cl)c1
 : -5%, -9%
> Cc1ccc(NC(=O)COC(=O)Cn2cnc3c2c(=O)n(C)c(=O)n3C)c(Cl)c1
 : 6%, 1%
> Cc1cc(C)c(S(=O)(=O)N2CCN(C(=O)CN3C(=O)NC4(CCCC4)C3=O)CC2)c(C)c1
 : -14%, i
> CCOC(=O)NC(=O)CSc1nnc(SCCC(=O)O)s1
 : 0%, -15%
> CCOC(=O)c1c(NC(=O)CSc2nnc(-c3c[nH]c4ccccc34)n2CCOC)sc2c1CCCC2
 : ?, ?
> Nc1nc(Cl)cc(NCCc2ccc(O)cc2)n1
 : -22%, -1%

Source: PubChem BioAssay
